High-throughput results (PubChem)
VACV mCherry inh = vaccinia inhibition (mCherry reporter) | Vaccinia virus mCherry reporter infection, fluorescence; about a quarter of the inactives have no number | Potency, µM (series often up to 36.5 µM), for inactives: top-dose activity change, negative = inhibition, most hits filed as inhibitors | 310,000 tested, 0.63% active | AID 720579; active = well fitted inhibition curve with a large enough effect; inconclusive = small, poorly fitted or top-dose-only effect; inactive = no such curve, though single readings can be large or run the other way; tested in A549 cells; further: nearly all actives have a fitted effect of over 35% in size; inactives centre near -10
Vaccinia Venus = vaccinia inhibition (Venus reporter) | Potency, µM (top dose mostly 36.5 µM), for inactives: at the highest dose activity change, negative = inhibition, usual class: inhibitors | 330,000 tested, 0.46% active | AID 720580 | Vaccinia virus Venus reporter expression, fluorescence; active means well fitted inhibition curve with a large enough effect; inconclusive means small, poorly fitted or top-dose-only effect; inactive means no such curve, though single readings can be large or run the other way; tested in A549 cells; further: nearly all actives have a fitted effect of over 30% in size; inactives centre near -10
* marks the source's active call; other numbers are inactive results. On the % scale 0 is the no-effect control and ±100 the full control effect; potency means the concentration at half of the fitted maximal effect.

How did Cn1c(=O)c2c(ncn2CC(O)CNc2ccc(Cl)cc2)n(C)c1=O (configuration not stated) do in these assays?
VACV mCherry inh: -5.7%; Vaccinia Venus: -9.1%

What do the screens show for `CC(C)CSc1oc(-c2ccco2)nc1S(=O)(=O)c1ccc(Br)cc1`?
VACV mCherry inh: -13.8%; Vaccinia Venus: -11.7%

Results for O=C1CN(C(=O)c2cccc([N+](=O)[O-])c2)CC(=O)N1 ?
VACV mCherry inh: inactive; Vaccinia Venus: -6.5%

How did O=C(CCS(=O)(=O)c1ccc2c(c1)NC(=O)CO2)Nc1cccc(C(F)(F)F)c1 do in these assays?
VACV mCherry inh: -0.5%; Vaccinia Venus: 7.2%

What do the screens show for `O=c1[nH][nH]c2cc([N+](=O)[O-])ccc12`?
VACV mCherry inh: -7.0%; Vaccinia Venus: -5.9%

What do the screens show for `CN(C)c1ccc(CNC(=O)C2CCN(c3nnc(-n4cccc4)s3)CC2)cc1`?
VACV mCherry inh: -0.5%; Vaccinia Venus: -9.9%

How did O=C(c1ccccc1Br)N(Cc1ccccc1F)C1CCS(=O)(=O)C1 (configuration not stated) do in these assays?
VACV mCherry inh: -8.4%; Vaccinia Venus: -0.1%

What do the screens show for `CNC(=O)c1cc(Oc2ccc(NC(=O)Nc3ccc(Cl)c(C(F)(F)F)c3)cc2)ccn1`?
VACV mCherry inh: inconclusive; Vaccinia Venus: 10µM*

Results for COC(=O)/C(=N/Nc1cccc(C)c1)N1CCCc2ccccc21 ?
VACV mCherry inh: inactive; Vaccinia Venus: -0.2%

How did CC(=O)C1=C(O)C(=O)N(CCc2ccccc2)C1c1ccccc1[N+](=O)[O-] (configuration not stated) do in these assays?
VACV mCherry inh: -5.5%; Vaccinia Venus: -2.1%

Results for Nc1ccc(Cl)c(Cl)c1 ?
VACV mCherry inh: inactive; Vaccinia Venus: -1.0%

Results for CC(C)(C)OC(=O)N1CCC(C(N)=O)CC1 ?
VACV mCherry inh: inactive; Vaccinia Venus: -1.7%

Results for CSC(=N/N=C(\N)c1cnccn1)SC ?
VACV mCherry inh: inactive; Vaccinia Venus: -8.4%

What do the screens show for `c1ccc(-c2nccc(-c3ccco3)n2)nc1`?
VACV mCherry inh: inconclusive; Vaccinia Venus: -11.9%

What do the screens show for `COc1cccc(-n2c(=O)c3sccc3n(Cc3cc(=O)n4cc(Cl)ccc4n3)c2=O)c1`?
VACV mCherry inh: -11.9%; Vaccinia Venus: -10.1%

How did CCCc1c(C(=O)NNc2ccccc2OC)cnn1-c1ccccc1 do in these assays?
VACV mCherry inh: inconclusive; Vaccinia Venus: 2.8%

How did O=C(NN1CCOCC1)c1cccc2ccccc12 do in these assays?
VACV mCherry inh: -3.8%; Vaccinia Venus: 5.2%

How did Cc1csc(NC(=O)CSc2nnc(Cc3cccn3C)n2-c2ccc(F)cc2)n1 do in these assays?
VACV mCherry inh: 1.5%; Vaccinia Venus: -9.7%

What do the screens show for `CCCN(CC1CC1)C(=S)NC(=O)c1ccccc1C`?
VACV mCherry inh: inactive; Vaccinia Venus: -10.9%

Results for O=C(Nc1cccc(NC(=O)c2ccco2)c1)c1ccc2c(c1)OCCO2 ?
VACV mCherry inh: inactive; Vaccinia Venus: -18.6%

Results for COc1cc(NC(=O)c2ccco2)ccc1NC(=O)c1ccccc1Cl ?
Vaccinia Venus: -27.6%

What do the screens show for `CCN(CCNC(=O)C1CCN(S(=O)(=O)c2c(C)noc2C)CC1)c1ccccc1`?
VACV mCherry inh: -6.9%; Vaccinia Venus: -5.8%

How did CCCOc1ccccc1N1C(=O)CC(N(O)c2ccccc2)C1=O (configuration not stated) do in these assays?
VACV mCherry inh: inactive; Vaccinia Venus: -10.0%

Results for COc1cc(/C=C2/C(=N)N3N=C(CC(=O)N4CCOCC4)SC3=NC2=O)ccc1OCc1ccccc1F ?
VACV mCherry inh: -7.3%; Vaccinia Venus: -4.6%

What do the screens show for `Cc1ccc2nc(N3CCC(C(=O)O)CC3)nc(-c3ccccc3)c2c1`?
VACV mCherry inh: -13.1%; Vaccinia Venus: -5.3%

How did NC(=O)c1oc2ccccc2c1NC(=O)c1ccccc1 do in these assays?
VACV mCherry inh: inconclusive; Vaccinia Venus: -21.5%

How did CC1=C(C(=O)N2CCOCC2)CC(CC(=O)NCc2cccs2)C(=O)N1Cc1ccc(F)cc1 (configuration not stated) do in these assays?
VACV mCherry inh: -22.7%; Vaccinia Venus: -13.4%

Results for CC1CCCC(NC(=S)Nc2ccc(SC(F)F)cc2)C1C (configuration not stated) ?
VACV mCherry inh: inconclusive; Vaccinia Venus: 11.2µM*

Results for CCOc1ccc(CN(CCO)CCO)cc1C(=O)OC ?
Vaccinia Venus: -6.5%

Results for O=C(CC1S/C(=N/N=C/C=C/c2ccccc2)NC1=O)Nc1ccc(C(=O)O)cc1 (configuration not stated) ?
VACV mCherry inh: -2.5%; Vaccinia Venus: -0.7%

Results for COC(=O)c1sc(NC(=O)c2c(F)cccc2F)c(C#N)c1C ?
VACV mCherry inh: -18.4%; Vaccinia Venus: -5.9%

How did O=C(CSc1oc(-c2ccco2)nc1S(=O)(=O)c1ccccc1)NCC1CCCO1 (configuration not stated) do in these assays?
Vaccinia Venus: 11.9%

How did COc1ccc(OC)c(NC(=O)CSc2nnc(C3CCCCC3)o2)c1 do in these assays?
VACV mCherry inh: -2.3%; Vaccinia Venus: -0.1%

How did COc1ccc(N=C2S/C(=C\c3ccc(Cl)c([N+](=O)[O-])c3)C(=O)N2CCN(C)C)cc1 do in these assays?
VACV mCherry inh: -22.9%; Vaccinia Venus: inconclusive

What do the screens show for `CC(C)(C)c1ccc(C(=O)O/N=C(\N)c2ccccc2)cc1`?
VACV mCherry inh: 5.2%; Vaccinia Venus: -6.3%

Results for Cc1cccc(C(=O)OCC(=O)N2CCCC2=O)c1[N+](=O)[O-] ?
VACV mCherry inh: -12.7%; Vaccinia Venus: -14.0%

How did COc1ccc(S(=O)(=O)NCCc2c[nH]c3ccccc23)cc1OC do in these assays?
VACV mCherry inh: inactive; Vaccinia Venus: 1.4%

How did CCCn1c(=O)c(C(=O)NNS(=O)(=O)c2ccc(Cl)cc2)c(O)c2ccccc21 do in these assays?
VACV mCherry inh: inactive; Vaccinia Venus: -16.7%

How did Cc1cc(C)cc(NC(=O)c2ccc([N+](=O)[O-])o2)c1 do in these assays?
VACV mCherry inh: inconclusive; Vaccinia Venus: inconclusive

How did O=c1ccc(N=Nc2ccccc2)ccc1O do in these assays?
VACV mCherry inh: inconclusive; Vaccinia Venus: -26.3%

What do the screens show for `Cc1cccc(NS(=O)(=O)c2ccc3c(c2)C(C)(C)C(=O)N3C)c1`?
VACV mCherry inh: -10.5%; Vaccinia Venus: 1.2%

Results for Cc1ccc(/C=N/N2CCN(Cc3ccccc3)CC2)o1 ?
VACV mCherry inh: -17.0%; Vaccinia Venus: -6.9%

How did CC(=O)c1ccc(N2CCN(C(=O)CCN3C(=S)NC(C)(C)CC3C)CC2)cc1 (configuration not stated) do in these assays?
VACV mCherry inh: -4.1%; Vaccinia Venus: -12.4%

What do the screens show for `S=C1SC2(CCCCCC2)NC2=C1CCCCC2`?
VACV mCherry inh: -29.6%; Vaccinia Venus: -28.9%

How did CCOc1ccc(C(=O)OCc2cc(=O)n3nc(C(C)C)sc3n2)cc1 do in these assays?
VACV mCherry inh: -1.0%; Vaccinia Venus: -1.2%

Results for O=C(CCNC(=O)c1ccc(Br)cc1)NCc1cccnc1 ?
VACV mCherry inh: -11.2%; Vaccinia Venus: -14.8%

How did CCCCOCCO do in these assays?
VACV mCherry inh: -12.6%; Vaccinia Venus: 2.4%

Results for Cc1ccc(C)n1-c1nnc(N2CCC(C(=O)NCCCN3CCN(C)CC3)CC2)s1 ?
VACV mCherry inh: -10.5%; Vaccinia Venus: -5.1%

How did Cn1c(N)c(C(=O)CSc2nnc(N)s2)c(=O)n(C)c1=O do in these assays?
VACV mCherry inh: inactive; Vaccinia Venus: -14.1%

Results for COc1cccc(Cn2nc(SC)c(S(=O)(=O)c3ccccc3)c2N(C(C)=O)C(C)=O)c1 ?
VACV mCherry inh: inconclusive; Vaccinia Venus: -23.2%

What do the screens show for `Cc1c(C(=O)C(=O)NCc2cccs2)c2ccccc2n1C`?
VACV mCherry inh: -4.6%; Vaccinia Venus: -8.1%

What do the screens show for `COc1cccc(/C=C2\SC(=S)N(N3C(=O)CCCC3=O)C2=O)c1`?
VACV mCherry inh: -3.1%; Vaccinia Venus: -15.8%

What do the screens show for `Cc1cc(C)c(S(=O)(=O)NCC2CCC(C(=O)NCc3ccc4c(c3)OCO4)CC2)c(C)c1` (configuration not stated)?
VACV mCherry inh: inconclusive; Vaccinia Venus: inconclusive

Results for COCCNC(=O)C1CC(c2ccc([N+](=O)[O-])cc2)=NO1 (configuration not stated) ?
VACV mCherry inh: -12.7%; Vaccinia Venus: -2.2%

What do the screens show for `CN(CCc1ccccc1)C(=O)c1cccc(NC(=O)Cc2cccc(NC(=O)C3CCCN(C(=O)C4CCC4)C3)c2)c1` (configuration not stated)?
VACV mCherry inh: inconclusive; Vaccinia Venus: inconclusive

How did CC(=O)c1ccc(N2CCN(C(=O)Nc3ccc(Cl)cc3)CC2)cc1 do in these assays?
VACV mCherry inh: -26.8%; Vaccinia Venus: -20.6%

What do the screens show for `Cc1ccc(-c2nn(CC(=O)NC(C)c3ccccc3)c(=O)c3ccccc23)cc1` (configuration not stated)?
VACV mCherry inh: -5.7%; Vaccinia Venus: inconclusive

What do the screens show for `CCCCC1S/C(=N/N=C/c2ccco2)NC1=O` (configuration not stated)?
VACV mCherry inh: 0.2%; Vaccinia Venus: -2.7%

Results for CC1CCc2nc(NC(=O)c3ccc(N4C(=O)CCC4=O)cc3)sc2C1 (configuration not stated) ?
VACV mCherry inh: -9.4%; Vaccinia Venus: -12.8%

What do the screens show for `CC(=O)c1c(C)n(-c2ccc(C)cc2)c2ccc(O)cc12`?
VACV mCherry inh: -14.5%; Vaccinia Venus: -13.5%

2 neighbouring records out of the list so far:
Results for O=C(CCNC(=O)c1ccc(Br)cc1)NCc1cccnc1 ?
VACV mCherry inh: -11.2%; Vaccinia Venus: -14.8%

How did CCCCOCCO do in these assays?
VACV mCherry inh: -12.6%; Vaccinia Venus: 2.4%

New compounds follow.
What do the screens show for `Cc1ccc(CNC(=O)CN2C(=O)C3CCCCN3c3ccc(C(=O)N(C)C)cc32)cc1` (configuration not stated)?
VACV mCherry inh: -2.1%; Vaccinia Venus: -7.3%

How did CCN(CC)C(=O)C1CCCN(Cc2ccc(N(C)C)cc2)C1 (configuration not stated) do in these assays?
VACV mCherry inh: -13.5%; Vaccinia Venus: -8.3%

Results for COCCCNC(=O)CCn1c(=O)c2ccccc2n(CC(=O)NCCc2ccc(OC)c(OC)c2)c1=O ?
VACV mCherry inh: inactive; Vaccinia Venus: -13.1%

What do the screens show for `C=C1c2cc(C)ccc2NC(=O)N1c1ccc(C)cc1`?
Vaccinia Venus: -15.8%

What do the screens show for `CC(O)CNCCCOc1ccc(Cl)cc1C(C)(C)C` (configuration not stated)?
VACV mCherry inh: -18.4%; Vaccinia Venus: -17.6%

What do the screens show for `CCOc1ccc(CC(=O)Nc2c(C(=O)c3ccccc3)oc3ccc(OC)cc23)cc1OCC`?
VACV mCherry inh: 2.1%; Vaccinia Venus: -17.0%

What do the screens show for `CCOP(=O)(OCC)C(Cc1ccccc1)N=C(c1ccccc1)c1ccccc1` (configuration not stated)?
VACV mCherry inh: inactive; Vaccinia Venus: 11.1%

What do the screens show for `COc1ccc(O)c(C(=O)c2cnn(C(=O)c3cc(C)oc3C)c2)c1`?
Vaccinia Venus: -4.1%

What do the screens show for `O=C(CN1c2ccccc2S(=O)(=O)c2ccccc21)NCc1ccccc1`?
VACV mCherry inh: -7.9%; Vaccinia Venus: -11.6%

What do the screens show for `CC(NC(=O)c1cc2ccccc2o1)c1ccccc1` (configuration not stated)?
VACV mCherry inh: -7.6%; Vaccinia Venus: -5.1%

What do the screens show for `C=CCSC1=C(C#N)C(c2ccccc2OCC)CC(=O)N1` (configuration not stated)?
VACV mCherry inh: inactive; Vaccinia Venus: -12.1%

What do the screens show for `CC(=O)Nc1sc(C)c(C)c1C(=O)OCC(=O)Nc1cc(S(C)(=O)=O)ccc1Cl`?
VACV mCherry inh: -2.5%; Vaccinia Venus: 2.4%

Results for O=C(N[C@@H](Cc1ccccc1)C(=O)NCCc1c[nH]c2ccccc12)c1ccco1 ?
VACV mCherry inh: -26.1%; Vaccinia Venus: -17.1%

What do the screens show for `Cc1ccc(N(C(=O)c2snc(C(N)=O)c2N)C(C(=O)NC2CCCC2)c2ccncc2)cc1` (configuration not stated)?
VACV mCherry inh: -4.3%; Vaccinia Venus: -10.4%

How did COc1ccc(N(C(=O)c2ccco2)C(C(=O)NC2CCCC2)c2ccco2)cc1OC (configuration not stated) do in these assays?
VACV mCherry inh: -7.2%; Vaccinia Venus: -4.2%

Results for COc1cccc(CN2CC(C(=O)N(C)CC3CCOCC3)CCC2=O)c1 (configuration not stated) ?
VACV mCherry inh: inactive; Vaccinia Venus: -19.8%

3 entries drawn at random from those above:
What do the screens show for `C=C1c2cc(C)ccc2NC(=O)N1c1ccc(C)cc1`?
Vaccinia Venus: -15.8%

What do the screens show for `O=C(CN1c2ccccc2S(=O)(=O)c2ccccc21)NCc1ccccc1`?
VACV mCherry inh: -7.9%; Vaccinia Venus: -11.6%

What do the screens show for `Cc1ccc(N(C(=O)c2snc(C(N)=O)c2N)C(C(=O)NC2CCCC2)c2ccncc2)cc1` (configuration not stated)?
VACV mCherry inh: -4.3%; Vaccinia Venus: -10.4%
